Rango release inh: prevents RanGTP from dissociating the Rango-importin beta complex. O95149+P62826. Biochemical FRET Rango-importin beta, RanGTP-induced dissociation. Potency, µM (series often up to 46.1 µM), for the others: at the top dose activity change, negative = inhibition. 340,000 tested, 0.071% active; active means falling FRET ratio curve, often poorly fitted, with flat reads before Ran was added; inconclusive means other falling curves, or compound fluorescence or quenching; inactive means flat or rising ratio curve;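 also: potency is read from the fitted curve at half-maximal effect; % of control where 0% means no effect; nearly all actives have a fitted effect of over 45% in size; -100% = wells without RanGTP and RCC1; the record marks most hits as doubtful in a second field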
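Compounds preincubate 5 min with complex of recombinant Rango and importin beta in PBS with 1 mM DTT. Ran (0.6 uM) loaded with 2 mM GTP plus 0.2 uM RCC1 starts dissociation; FRET is recorded 45 min later.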
Rango-impB inh: inhibitors of Rango-importin beta complex formation. Q14974. Rango CFP/YFP FRET sensor + importin beta, 45 min. Potency, µM (highest dose often 92.2 µM), without a hit: top-dose inhibition of complex formation. 340,000 tested, 0.031% active; active = rising FRET ratio curve, often small or poorly fitted; inconclusive = mostly compound fluorescence or quenching in the first reads; inactive = flat curves in all reads;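 also: potency is read from the fitted curve at half-maximal effect; 0% = DMSO wells and 100% = buffer wells lacking importin beta; nearly all actives have a fitted effect of over 15% in size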
Target sequence (Q14974 whole entry, looked up): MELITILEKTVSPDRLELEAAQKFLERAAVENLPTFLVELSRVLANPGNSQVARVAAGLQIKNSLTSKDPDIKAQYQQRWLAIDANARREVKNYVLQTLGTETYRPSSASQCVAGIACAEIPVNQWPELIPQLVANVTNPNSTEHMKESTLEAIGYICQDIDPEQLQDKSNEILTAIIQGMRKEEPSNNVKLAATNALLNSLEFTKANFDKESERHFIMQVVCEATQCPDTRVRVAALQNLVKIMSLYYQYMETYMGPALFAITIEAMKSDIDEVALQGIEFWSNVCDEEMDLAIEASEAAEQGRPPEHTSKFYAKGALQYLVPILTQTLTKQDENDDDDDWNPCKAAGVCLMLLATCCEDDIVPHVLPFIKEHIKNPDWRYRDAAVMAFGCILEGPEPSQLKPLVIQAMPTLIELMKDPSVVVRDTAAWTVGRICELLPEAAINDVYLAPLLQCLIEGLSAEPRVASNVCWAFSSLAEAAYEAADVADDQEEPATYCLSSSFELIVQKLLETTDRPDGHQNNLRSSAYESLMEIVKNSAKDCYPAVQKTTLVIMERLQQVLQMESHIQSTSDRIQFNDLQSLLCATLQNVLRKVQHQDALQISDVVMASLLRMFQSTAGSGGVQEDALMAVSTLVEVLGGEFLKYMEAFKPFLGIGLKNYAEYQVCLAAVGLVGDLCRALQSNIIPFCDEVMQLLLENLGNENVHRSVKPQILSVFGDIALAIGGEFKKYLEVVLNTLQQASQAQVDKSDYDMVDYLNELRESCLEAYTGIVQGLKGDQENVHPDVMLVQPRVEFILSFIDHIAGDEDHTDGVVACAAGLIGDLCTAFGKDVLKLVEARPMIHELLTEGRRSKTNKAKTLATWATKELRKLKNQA
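Inhibition scored from the CFP 486 nm/YFP 530 nm FRET ratio 45 min after adding 0.125 microM importin beta to 50 nM Rango biosensor preincubated 5 min with compound (room temperature, PBS with DTT, Tween-20, BSA). No-importin wells as positive control.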
GLA inh pH 4.5: alpha-galactosidase A (human) inhibition, pH 4.5. purified enzyme, 4-MU-alpha-Gal fluorescence, pH 4.5. activity change, negative = inhibition, % at 105 µM. 230,000 tested, under 10 active. AID 1467; inconclusive = small, poorly fitted or top-dose-only inhibition, or a rising curve; inactive = flat fitted curve, though single readings scatter; no compound was filed as active;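 also: 0% = full activity with enzyme and -100% = basal without enzyme; dose as in the result columns while the protocol names 77 µM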
miR-21 reporter: miR-21 reporter, rising signal | HeLa miR-21 FLuc reporter, luciferase, 48 h | AID 2288 | 340,000 tested, under 10 active | Potency, µM (titrated, usually from 38.3 µM), for inactives: top-dose reporter change, positive = more light; active = well fitted rising curve with a large enough effect; inconclusive = small, poorly fitted or top-dose-only effect; inactive = no such curve, though single readings can be large or run the other way;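 also: % of control where 0% means no effect; miR-21 action dims this reporter so a rising signal means less miR-21 action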
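Luminescence from a firefly luciferase reporter carrying a miR-21 binding site downstream, stably expressed under a CMV promoter in HeLa cells that make miR-21 endogenously, reports miRNA modulation after 48 h compound exposure up to approximately 40uM final.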
* hit, by the source's call; u = inconclusive; x = not tested or not shown; [ ] = dose if it differs, or a comment. An excerpt; rates above refer to the full screens.

Rango release inh	Rango-impB inh	GLA inh pH 4.5	miR-21 reporter	structure
x	x	-4.5	-6.0%	COC(=O)C1=C(C)NC2=C(C(=O)CCC2)C1c1cccs1 (stereo not given)
0.8%	0.9%	1.0	-46.1%	C/C(=N\Nc1nc(N)cc(Cl)n1)c1ccc(F)cc1
-4.7%	0.7%	2.1	-60.5%	Cc1nc(-c2ccccc2)sc1-c1nnc(C2CC2)o1
0.6%	0.1%	x	x	COc1cccc(N2CCN(C(=O)CC(NC(=O)c3ccccc3)c3ccccc3)CC2)c1 (stereo not given)
16.8%	6.6%	x	x	Oc1ccc(C[C@H]2CNC(=S)N2CC2CCCN2C[C@H](Cc2ccc(O)cc2)N2C[C@H](Cc3ccccc3)N(CC3CCCCCC3)C2=S)cc1 (stereo not given in full)
55.5%	-6.3%	-1.4	-10.9%	CC(C)(CC(=O)O)CC(=O)Nc1ccc(Oc2ccc(C(C)(C)C)cc2)nc1
7.0%	0.1%	7.7	-19.3%	CC(C)(C)C(=O)NC(=S)Nc1ccccn1
4.1%	u	-4.3	-0.7%	Cc1cccc(NC(=O)CSc2nc(C)c(CC(=O)c3ccc(Br)cc3)c(C)c2C#N)c1C
-9.8%	-3.3%	x	-9.2%	Cc1ccc(CN2C(=O)CC(Nc3ccc(N4CCOCC4)cc3)C2=O)cc1 (stereo not given)
0.3%	-3.5%	6.2	-10.4%	O=C(N/N=C/c1ccco1)c1cc(Br)ccc1OCc1ccccc1
-16.1%	6.2%	x	-6.5%	COC(=O)c1ccc(CN2CCC(n3nccc3NC(=O)C3CC3)CC2)cc1
-8.7%	1.2%	-20.6	-1.2%	O=C(CSc1nc2nn(-c3ccccc3)c(=O)c-2c2n1CCCCC2)NCCCc1ccccc1
-13.8%	-0.7%	0.1	-1.6%	CCC(CC)C(=O)NCc1ccc(Cl)cc1
0.6%	1.8%	-11.2	-6.8%	CC(=O)c1ccc(N2CCN(C(=O)c3ccc4c(=O)n(-c5ccccc5)c(=O)[nH]c4c3)CC2)cc1
-9.5%	0.5%	-9.2	1.8%	Cc1cccc(NC(=S)N2CCCC(c3nc4ccccc4[nH]3)C2)c1 (stereo not given)
-10.4%	-0.9%	x	0.2%	Cc1ccccc1C(=O)NC1CCN(CC(=O)Nc2ccccc2)CC1
0.5%	0.3%	0.7	-0.1%	Cc1ccc(-n2nc3c4c(cccc4c2=O)-c2ccccc2-3)cc1
-17.4%	u	-15.6	-2.9%	CCCN=C1N/C(=C\c2ccco2)C(=O)N1c1ccccc1
-14.0%	-2.3%	x	x	CCOC(=O)C1C(O)=CC(=O)CC1c1ccccc1 (stereo not given)
-0.8%	-4.5%	0.1	-23.0%	COc1cccc(N2CCN(C3CC(=O)N(c4ccc(Cl)c(Cl)c4)C3=O)CC2)c1 (stereo not given)
2.5%	-1.4%	x	-3.5%	COc1ccc(CCC(=O)NCc2ccccc2Cl)cc1OC
26.3%	-4.1%	8.2	-1.0%	O=Cc1ccc(OCC(=O)Nc2ccccc2-c2ccccc2)cc1
29.2%	-3.5%	-26.3	-10.0%	CC(/C=N/n1c(-c2ccccc2)n[nH]c1=S)=C\c1ccco1
7.5%	-0.6%	-7.7	-2.8%	O=C(Nc1nc2ccc3ccccc3c2s1)c1ccc(N2CCCCC2)c([N+](=O)[O-])c1
-1.1%	0.5%	-4.2	-16.8%	Fc1cccc(Cl)c1CSc1nnc(COc2cccc3cccnc23)o1
-4.7%	-2.3%	x	x	CC1CN(C(=O)[C@@H]2CCCN2S(=O)(=O)c2ccc(Cl)cc2)CC(C)O1 (stereo not given in full)
-8.0%	-0.2%	x	0.2%	COc1ccc(S(=O)(=O)Cc2ccc(C(=O)N3CC(C)CC(C)C3)o2)cc1 (stereo not given)
25.3%	-2.9%	x	x	CN(C(=O)c1ccc(NC(=O)Cc2ccc(NC(=O)C3CCCN(C(=O)c4ccccc4)C3)cc2)cc1)C1CC1 (stereo not given)
0.0%	-2.1%	-11.6	3.8%	CC(C)C(=O)N(c1ccc2oc(=O)sc2c1)S(=O)(=O)c1cccs1
-0.3%	-0.4%	6.7	-5.2%	N#Cc1cnn(Cc2ccc(Cl)cc2)c1N
29.2%	7.5%	2.5	-3.2%	CCOC(=O)N1CCN(c2nnnn2-c2ccccc2)CC1
20.0%	-4.3%	4.2	-2.0%	O=C(Nc1ccccc1N1CCN(C(=O)c2ccc(Cl)cc2)CC1)c1cccnc1
2.5%	0.2%	x	x	C/C(=N\NC(=O)c1cccc(S(=O)(=O)N2CCCC2)c1)c1ccc(C)cc1
10.7%	0.2%	3.6	-0.1%	COCCNC(=O)C(=O)NNS(=O)(=O)c1ccc(Cl)cc1
10.1%	0.5%	x	x	CCOC(=O)C1=C(COC(=O)/C=C/c2ccc(C)o2)NC(=O)NC1C (stereo not given)
13.6%	6.2%	-1.2	-37.6%	C/C(=N\NC(=O)c1ccccc1)c1ccc(NC(=O)c2cccs2)cc1
1.5%	-0.7%	2.5	-14.5%	COc1ccc(-c2nnn(Cc3nc(N)nc(N4CCOCC4)n3)n2)cc1OC
13.7%	0.2%	2.1	2.1%	CCOC(=O)N1CCC(NC(=O)c2cnc3n(c2=O)CCS3)CC1
-20.3%	u	-7.1	-8.5%	COc1ccccc1/C=C/C=c1\sc2nc(=O)c(Cc3ccccc3)nn2c1=O
2.8%	-1.9%	-5.2	6.6%	CC(=O)OCC(=O)NCc1ccc2c(c1)OCO2
1.3%	-1.4%	5.5	-1.4%	CN(C)S(=O)(=O)c1ccc2c(c1)c(=O)c(C(=O)N1CCOCC1)cn2C
0.1%	-1.5%	x	5.6%	CC(Oc1ccccc1)C(=O)Nc1ccc(S(=O)(=O)N2CCCC2)cc1 (stereo not given)
-3.2%	0.6%	5.4	-3.6%	CCOCCCNC(=O)C(NC(=O)CC1NC(=O)NC1=O)c1ccc(Cl)cc1 (stereo not given)
8.8%	1.7%	x	x	CC1=NN(c2ccc([N+](=O)[O-])cc2)C(=O)C1
-3.3%	1.8%	x	x	O=C(CSc1nc2ncc(Cl)cc2[nH]1)N1CCOCC1
-3.4%	0.6%	7.7	-1.7%	CN(C)C(=O)COc1ccc(Br)cc1
5.8%	-0.9%	5.1[21.1 µM]	-1.8%	Cc1ccc(C(=O)O)cc1NC(=O)c1ccc(Cn2nc(C)c(Cl)c2C)o1
-12.2%	0.3%	-6.3	-7.2%	COC(=O)c1ccccc1NC(=O)CSc1ncccn1
3.5%	1.2%	x	x	COc1ccc(C(CNC(=O)c2cccc(S(=O)(=O)N3CCCCC3)c2)N2CCCC2)cc1 (stereo not given)
-6.6%	-2.7%	-13.4	-27.7%	CSc1ccccc1C(=O)Nc1ncc(C)s1

New compounds follow.
Rango release inh	Rango-impB inh	GLA inh pH 4.5	miR-21 reporter	structure
-21.7%	0.2%	1.8	0.5%	CCN1CCN(C(=S)Nc2ccccc2Cl)CC1
9.0%	1.6%	-2.6	-0.8%	CCn1c(SCC(=O)N(C)C2CCS(=O)(=O)C2)nnc1-c1cccs1 (stereo not given)
10.7%	0.4%	7.0	-43.0%	C=CCc1ccc(OCC(O)COCC)c(OC)c1 (stereo not given)
-11.9%	8.8%	7.7	-1.1%	COCCN(CCOC)S(=O)(=O)c1ccc(C(=O)Nc2ccc([N+](=O)[O-])cc2OC)cc1
4.5%	2.5%	1.5	-21.3%	CCOc1ccc(C2=Nn3cnnc3SC2)cc1
-3.3%	-1.9%	6.6	-18.6%	O=C(Nc1ccc(NC(=O)c2sc3ccccc3c2Cl)cc1Cl)c1ccco1
-6.8%	3.3%	-8.0	-44.1%	CCC(=O)c1ccc(OCc2ccc(C(=O)OC)o2)c(OC)c1
0.3%	0.3%	7.4	-33.5%	Cn1nccc1C(=O)NC(=S)Nc1sc2c(c1C#N)CCCCC2
1.2%	1.7%	-11.0	0.1%	O=C(CN(C(=O)CNC(=O)c1ccco1)c1ccc(Cl)c(Cl)c1)NC1CCCCC1
10.7%	-0.4%	-1.0	-1.9%	Cn1c(NCCCO)nc2c(c1=O)C1(CCCCC1)Cc1ccccc1-2
-4.9%	-2.5%	-7.2	-1.9%	CCOC(=O)c1sc(NC(=O)c2ccccc2OCC)nc1C
-13.8%	0.4%	-27.8	-5.5%	C/[N+]([O-])=C\CC(=O)c1ccc(-c2ccccc2)cc1
-12.6%	-4.2%	-1.2	-0.2%	CCN1CCN(CC(=O)NC2CCCC2)C(=O)C1=O
0.2%	-2.5%	x	x	CN(C(=O)CSc1ncnc2sccc12)C1CCCCC1
1.2%	1.6%	-5.6	-3.6%	O=[N+]([O-])c1cccnc1N1CCOCC1
8.7%	2.2%	x	-11.5%	Cc1cc(C)c2sc(N(CCN(C)C)C(=O)c3ccc4ccccc4c3)nc2c1
0.8%	-0.2%	-2.7	-15.9%	CC1CC(=S)Nc2ccccc2N1C(=O)Nc1ccccc1 (stereo not given)
-13.6%	0.6%	5.6	-0.4%	Cc1cc(Cl)nc2c(C(C)C)cccc12
-0.6%	-3.1%	-0.9	-26.1%	CCOc1ccc(NC(=O)Nc2ccc3nsnc3c2)cc1
18.5%	2.6%	6.5	0.8%	CCSc1nnc([C@H](Cc2c[nH]c3ccccc23)NC(=O)OC(C)(C)C)o1
23.8%	-0.7%	4.0	-3.7%	O=C(NCC1CCCO1)c1onc(CSc2ccc(F)cc2)c1C(=O)O (stereo not given)
12.3%	-6.0%	-9.9	-21.3%	CCOC(=O)c1cccc(NC(=O)c2cc3sccc3n2C)c1
1.2%	6.0%	-3.6	-6.7%	CCC(C)(C(=O)NC1CCCCC1)N(Cc1cccs1)C(=O)CC1NC(=O)NC1=O (stereo not given)
0.6%	u	4.2	18.2%	Cc1ccc(/C=N/NC(=O)CCn2nc(C)cc2C)c(C)c1
2.4%	-1.6%	x	-8.6%	CCCCNC(=O)CCn1nc(-c2ccc(C)cc2)c2ccccc2c1=O
1.7%	2.3%	-1.9	-16.8%	O=C(CSc1nc(-c2ccccc2Cl)ns1)c1ccc(Cl)cc1
-3.9%	-1.8%	x	x	Cc1cccc(C(=O)NCC(=O)NCCCSc2ccccc2)c1
18.4%	-5.3%	7.7	-49.2%	Clc1ccc(C2=NNC(=NCC3CCCO3)SC2)cc1 (stereo not given)
-23.1%	0.6%	-3.0	-4.8%	CCOC(=O)c1[nH]c2ccc(OC)cc2c1NC(=O)CCN1CCCC(C)C1 (stereo not given)
-7.0%	-0.8%	-4.8	1.7%	CCCCOC(=O)CCc1nc2ccccc2[nH]c1=O
2.6%	3.2%	x	x	CCOC(=O)N1CCN(C(=O)COC(=O)c2ccc(S(=O)(=O)N(CC)CC)cc2)CC1
-14.3%	-3.3%	3.1	-3.4%	Cn1c(SCc2c(Cl)cccc2Cl)nc(C(F)(F)F)cc1=O
8.1%	-1.7%	x	2.0%	C[C@H](NC(=O)N1CCn2c1nc1ccccc12)C(=O)NC1CCCCC1
-4.9%	-1.4%	x	2.4%	CCOC(=O)CC(NC(=O)CCS(=O)(=O)c1ccc2c(c1)n(C)c(=O)c(=O)n2C)c1ccc(C)cc1 (stereo not given)
0.9%	0.4%	x	x	CCN(CC(=O)Nc1ccc2c(c1)OCCO2)C(=O)COc1cc(C)ccc1Cl
-13.1%	2.8%	-3.4	-3.1%	N=c1c2c(-c3ccccc3)c(-c3ccccc3)oc2ncn1Cc1ccco1
u	7.7%	-0.3	4.4%	Cc1ccccc1OCc1nnc(SCCN2CCCC2)n1-c1ccccc1
-9.4%	3.9%	x	x	COc1cc(CN2c3ccccc3C(=O)CS2(=O)=O)cc(OC)c1
-8.4%	-5.3%	-1.6	21.6%	Cc1cccc(C(=O)N/N=C2\CS(=O)(=O)N(C)c3ccsc32)c1
8.4%	-0.3%	-4.5	0.1%	CCOc1ccccc1OCCCC(=O)N1CCN(S(=O)(=O)c2cccc(F)c2)CC1

Sorted by molar mass (falling): some entries from above
Rango release inh	Rango-impB inh	GLA inh pH 4.5	miR-21 reporter	structure
-4.9%	-1.4%	x	2.4%	CCOC(=O)CC(NC(=O)CCS(=O)(=O)c1ccc2c(c1)n(C)c(=O)c(=O)n2C)c1ccc(C)cc1 (stereo not given)
-14.3%	-3.3%	3.1	-3.4%	Cn1c(SCc2c(Cl)cccc2Cl)nc(C(F)(F)F)cc1=O
-13.1%	2.8%	-3.4	-3.1%	N=c1c2c(-c3ccccc3)c(-c3ccccc3)oc2ncn1Cc1ccco1

Source: PubChem BioAssay (National Center for Advancing Translational Sciences (NCATS))
